motility: Vibrio cholerae motility inhibitors, OD read-out (AID 588778); inhibition, %, or IC50 in µg/mL where a hit was titrated; 10,000 tested, under 10 active; Vibrio cholerae motility, OD read-out; higher % means a stronger effect; test concentration not given here; primary cut-off and reference of the scale not given here; strong numbers were not always called active; in the data active = confirmed in a dose series
motility viability: also measured in motility; calls as there; inhibition, %; measured here: bacterial viability at 10 ug/mL;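 higher means fewer living bacteria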
* = called active by the depositor.

`O=C(CSc1cccc2cccnc12)c1ccc([N+](=O)[O-])cc1` gave motility 11% and motility viability 31.
Screening CCC(C)C(=O)Nc1ccc(F)c(F)c1 (configuration not stated) returned motility 13% and motility viability 4.
`O=C1CC(c2ccco2)Sc2nc(-c3ccc(F)cc3)nn21` (configuration not stated) gave motility -7% and motility viability 4.
For CC(C)Sc1nc2ccc(N)cc2[nH]1 the results were motility 16% and motility viability 14.
For N#CCC1NCCc2ccccc21 (configuration not stated) the results were motility 8% and motility viability -3.
For COc1c(F)c(F)c(C(=O)Nc2ccc(Br)cc2Cl)c(F)c1F the results were motility -1% and motility viability -4.
Screening COc1ccc(CCNC(=O)CSc2nnc(CSc3nc(C)cc(C)n3)o2)cc1OC returned motility -6% and motility viability -5.
For O=C(Nc1ccc(NC(=S)NC(=O)c2cccs2)cc1Cl)c1ccco1 the results were motility 20% and motility viability -6.
`COC(=O)c1c(NC(=S)NCc2cn(-c3ccccc3)nc2-c2ccccc2)sc2c1CCC2` gave motility -24% and motility viability -13.
CC(CNC(=O)c1ccccc1Br)c1ccccc1 (configuration not stated) was read as motility -7% and motility viability -7.
OCC1C2c3ccccc3C(c3ccccc32)C1CO (configuration not stated) was read as motility -7% and motility viability 6.
Screening C=CCc1cc(S(=O)(=O)c2ccc(O)c(CC=C)c2)ccc1O returned motility 103% and motility viability 29.
COc1cc(C(=O)OCc2ccccc2Cl)c(Br)c(OC)c1OC was read as motility -3% and motility viability -3.
Screening O=C1CCCC2=C1C(c1ccccc1C(F)(F)F)c1c([nH]c(=O)[nH]c1=O)N2 (configuration not stated) returned motility -13% and motility viability 0.
CCOc1ccc2nc(NS(=O)(=O)c3ccc4c5c(cccc35)C(=O)N4C)sc2c1 was read as motility -4% and motility viability -1.
Screening O=C(c1cccs1)N1N=C(c2cccnc2)CC1c1ccccc1O (configuration not stated) returned motility 3% and motility viability 0.
For COC(=O)c1ccc2ccn(CC(N)=O)c2c1 the results were motility 9% and motility viability 7.
For S=C(Nc1ccc(Cl)c(Cl)c1)N1CCN(c2ncccn2)CC1 the results were motility -7% and motility viability -10.
For CCN1CCCC1CNC(=O)C(=O)NCC1CCCO1 (configuration not stated) the results were motility -5% and motility viability -5.
Cc1cc(C)c(C)c(C(=O)COC(=O)CNS(=O)(=O)c2ccccc2)c1C was read as motility 10% and motility viability -3.

Structural class, those above with a Cl atom
For COc1c(F)c(F)c(C(=O)Nc2ccc(Br)cc2Cl)c(F)c1F the results were motility -1% and motility viability -4.
For O=C(Nc1ccc(NC(=S)NC(=O)c2cccs2)cc1Cl)c1ccco1 the results were motility 20% and motility viability -6.
COc1cc(C(=O)OCc2ccccc2Cl)c(Br)c(OC)c1OC was read as motility -3% and motility viability -3.
For S=C(Nc1ccc(Cl)c(Cl)c1)N1CCN(c2ncccn2)CC1 the results were motility -7% and motility viability -10.

More results follow.
O=C(Nc1ccc(F)cc1F)c1ccc(COc2ccc3c(c2)CCC3)o1 was read as motility -9% and motility viability -4.
For O=C1CSC(SCC(=O)Nc2ccccc2Cl)=N1 the results were motility 23% and motility viability 21.
For COc1ccc(C(=O)CSc2nc(=O)cc(N)n2-c2ccc(C)cc2)cc1OC the results were motility -12% and motility viability -11.
`O=C(c1ccc(Br)s1)N1CCN(Cc2ccc3c(c2)OCO3)CC1` gave motility 25% and motility viability 6.
`COc1cc(OC)cc(-c2nc(=S)[nH][nH]2)c1` gave motility 12% and motility viability 0.
For O=C(NC(=S)Nc1ccc(S(=O)(=O)Nc2ccccc2)cc1)C1CC1 the results were motility -7% and motility viability -4.
`CSc1ccccc1NS(C)(=O)=O` gave motility -1% and motility viability -1.
Screening Cc1cc(NC(=O)C(C)(C(F)(F)F)C(F)(F)F)no1 returned motility -6% and motility viability -7.
`CCOC(=O)C1=C(N)N2C(=O)C(C)SC2=C(C(=O)OCC)C1c1ccccc1` (configuration not stated) gave motility 18% and motility viability 5.
For O=C(O)Cc1ccc2c3c(cccc13)CC2 the results were motility -15% and motility viability -9.
Screening Cc1ccc(N2C(=O)CC(N3CCc4ccccc43)C2=O)cc1Cl (configuration not stated) returned motility 30% and motility viability 10.
Screening O=C(NCCN1CCN(S(=O)(=O)c2ccc([N+](=O)[O-])cc2)CC1)C(=O)NCc1ccc(Cl)cc1 returned motility -4% and motility viability -1.
For COc1cccc(C(=O)CN2C3=NCCN3c3ccccc32)c1 the results were motility -5% and motility viability 8.
CC(C)(O)C#Cc1ccccc1C(=O)NC(CC(=O)O)c1ccccc1 (configuration not stated) was read as motility -2% and motility viability 3.
`COc1cc(/C=C/c2ccc3ccccc3n2)cc(I)c1OC` gave motility -12% and motility viability -2.
`Cc1cc(N2CCCC2)ccc1/C=C(\C#N)C(N)=S` gave motility 0% and motility viability 0.
Screening Cc1ccc(NC(=O)c2ccc(NCCN3C(=O)C4C5C=CC(C5)C4C3=O)c([N+](=O)[O-])c2)cc1Cl (configuration not stated) returned motility 17% and motility viability 9.
Nc1c(-c2nc3ccccc3[nH]2)sc2nc3c(cc12)CCC3 was read as motility 20% and motility viability 2.
For O=C(NC(=S)Nc1ccc2oc(-c3ccncc3)nc2c1)c1cc(Br)ccc1Cl the results were motility 4% and motility viability -1.
Cc1[nH]c2ccccc2c1C(=O)CSc1nnc(Cc2cccs2)n1C was read as motility -14% and motility viability -3.

An excerpt from above in order of length of the SMILES, falling.
`CCOC(=O)C1=C(N)N2C(=O)C(C)SC2=C(C(=O)OCC)C1c1ccccc1` (configuration not stated) gave motility 18% and motility viability 5.
Cc1[nH]c2ccccc2c1C(=O)CSc1nnc(Cc2cccs2)n1C was read as motility -14% and motility viability -3.
For O=C(O)Cc1ccc2c3c(cccc13)CC2 the results were motility -15% and motility viability -9.
`CSc1ccccc1NS(C)(=O)=O` gave motility -1% and motility viability -1.

Gathered by group, the entries above containing a cyano group (2)
For N#CCC1NCCc2ccccc21 (configuration not stated) the results were motility 8% and motility viability -3.
`Cc1cc(N2CCCC2)ccc1/C=C(\C#N)C(N)=S` gave motility 0% and motility viability 0.

Next section
`CN(CC(=O)NNC(=O)c1cccs1)S(=O)(=O)c1ccc2ccccc2c1` gave motility -24% and motility viability -5.
`COc1cc(OC)c(/C=C(/C#N)c2ccccc2F)cc1Br` gave motility -16% and motility viability -7.
`Cc1cccc(-n2c(SCC(=O)c3ccccc3)nnc2-c2cccs2)c1C` gave motility -8% and motility viability -2.
Screening CCOc1ccc(NC(=O)Nc2ccc(Cc3ccncc3)cc2)cc1 returned motility 9% and motility viability 20.
For CC1=NN(c2ccccc2)C(=O)C1CCC(=O)N1CCCCC1 (configuration not stated) the results were motility -1% and motility viability -8.
Screening Cc1cc(Cl)c(OCCOCCn2cnc3ccccc3c2=O)c(Br)c1 returned motility 4% and motility viability -6.
`CCOC(=O)c1c(NC(=O)/C(C#N)=C\c2ccc(-c3cccc(Cl)c3)o2)sc2c1CCCC2` gave motility 8% and motility viability 1.
For O=C1CC(N2CCN(c3ccccn3)CC2)C(=O)N1c1ccc(F)c(Cl)c1 (configuration not stated) the results were motility -1% and motility viability -1.
Cc1cc(C)nc(/N=C(/N)Nc2ccccc2Br)n1 was read as motility -2% and motility viability 9.
For CCS(=O)(=O)N1CC(C)N(S(=O)(=O)CC)CC1C (configuration not stated) the results were motility -1% and motility viability -2.
Screening O=C(COc1ccc2c(C(F)(F)F)cc(=O)oc2c1)c1ccc(-c2ccccc2)cc1 returned motility 4% and motility viability -2.
CCCCc1nnc(NC(=O)CCS(=O)(=O)Cc2ccccc2)s1 was read as motility -8% and motility viability -3.
`O=S(=O)(Nc1nnc(C(F)(F)F)s1)c1ccc(Cl)cc1` gave motility 3% and motility viability 1.
O=C(Nc1ccc2nsnc2c1)N1CCSCC1 was read as motility 18% and motility viability 25.
`O=C(c1ccc(Cl)cc1[N+](=O)[O-])N1CCN(c2ccccn2)CC1` gave motility -9% and motility viability 0.
CC(=O)c1c(C)n(CC2CCCO2)c2ccc(O)cc12 (configuration not stated) was read as motility 19% and motility viability 5.
For CCOC(=O)c1oc2c(F)cccc2c1C the results were motility 7% and motility viability -5.
CCOc1ccccc1N1CCN(Cc2cccc(F)c2)CC1 was read as motility 13% and motility viability 25.
For O=C(Nc1ccc(F)cc1)c1ccccc1NS(=O)(=O)N1CCCC1 the results were motility 19% and motility viability 14.
CC1(C(=O)NNC(=S)NCc2ccco2)CC1(Cl)Cl (configuration not stated) was read as motility 6% and motility viability 3.

Random excerpt: 7 entries already listed.
`COc1cc(OC)c(/C=C(/C#N)c2ccccc2F)cc1Br` gave motility -16% and motility viability -7.
`COc1cc(/C=C/c2ccc3ccccc3n2)cc(I)c1OC` gave motility -12% and motility viability -2.
`Cc1cccc(-n2c(SCC(=O)c3ccccc3)nnc2-c2cccs2)c1C` gave motility -8% and motility viability -2.
CCOc1ccc2nc(NS(=O)(=O)c3ccc4c5c(cccc35)C(=O)N4C)sc2c1 was read as motility -4% and motility viability -1.
For N#CCC1NCCc2ccccc21 (configuration not stated) the results were motility 8% and motility viability -3.
Screening Cc1ccc(NC(=O)c2ccc(NCCN3C(=O)C4C5C=CC(C5)C4C3=O)c([N+](=O)[O-])c2)cc1Cl (configuration not stated) returned motility 17% and motility viability 9.
Cc1cc(C)c(C)c(C(=O)COC(=O)CNS(=O)(=O)c2ccccc2)c1C was read as motility 10% and motility viability -3.

The listing continues:
`O=C(CSCc1c(Cl)cccc1Cl)N1CCc2ccccc2C1` gave motility 19% and motility viability 27.
`COc1ccccc1C1(C#N)CCOCC1` gave motility -3% and motility viability -3.
For Cc1nc(N=C(N)N)nc2cc3c(cc12)OCO3 the results were motility 19% and motility viability 0.
Screening O=C(COc1ccc2ccccc2c1Br)Nc1ccccc1C(=O)N1CCCC1 returned motility 4% and motility viability 2.
COc1ccc2oc(=O)c(-c3cn4cccnc4n3)cc2c1 was read as motility 0% and motility viability -6.
Cn1nnc(NC(=S)NC(=O)Cc2ccccc2)n1 was read as motility 7% and motility viability 2.
Screening CCOC(=O)CNC(=O)c1cc(OC)c(OC)cc1[N+](=O)[O-] returned motility -3% and motility viability -5.
Screening CSc1nc2sc3c(c2c2nnc(SCc4cccc5ccccc45)n12)CCN(C)C3 returned motility 11% and motility viability 4.
For Cc1ccc(CNC(C)Cc2ccccc2)o1 (configuration not stated) the results were motility 10% and motility viability -4.
Screening CCOC(=O)c1ccc(NC(=S)Nc2cnn(Cc3cccc(OC)c3)c2)cc1 returned motility 1% and motility viability 1.
Screening OC1CN(C(c2ccccc2)c2ccccc2)C1 returned motility 26% and motility viability 9.
CCOC(=O)c1sc(NS(C)(=O)=O)nc1C was read as motility -2% and motility viability -7.
`CSc1nc2ccccc2n1C(=O)CCCN1C(=O)c2cccc3cccc(c23)C1=O` gave motility 0% and motility viability -3.
`Fc1ccccc1OCc1cnn(-c2ccccc2)c1` gave motility 12% and motility viability 26.
For O=C(Nc1ccc(C2CCCCC2)cc1)C1=C(O)CCn2c1nc1ccccc12 the results were motility 5% and motility viability -1.
O=C(N/N=C/c1ccccn1)/C(=C\c1cccs1)NC(=O)c1ccccc1 was read as motility 2% and motility viability 3.
`Cc1cc(NC(=O)Nc2cccc(C(F)(F)F)c2)no1` gave motility 14% and motility viability 5.
C/C=C/c1ccc(OCCCn2cncn2)c(OC)c1 was read as motility 6% and motility viability -1.
For Oc1ccc2[nH]c(-c3ccccc3)nc2c1CN1CCCCC1 the results were motility 17% and motility viability 0.
Screening Cc1cc2c(cc1C)C(c1cc(Br)ccc1F)CC(=O)N2 (configuration not stated) returned motility -6% and motility viability 2.
Screening Cc1ccccc1OCC(=O)NCC(=O)OCc1ccc(Cl)cc1 returned motility 15% and motility viability 2.
`CCOC(=O)CNC(=O)c1ccc(Br)s1` gave motility -4% and motility viability -3.
For O=C1CCCC2=C1C(c1ccco1)c1c([nH]n(-c3ccccc3)c1=O)N2 (configuration not stated) the results were motility -3% and motility viability -14.
CCN1C(=O)/C(=C2/C=Cc3ccccc3N2C)OC1=S was read as motility 0% and motility viability -1.
`CCN(CC)S(=O)(=O)c1cccc(C(=O)Nc2nncs2)c1` gave motility 0% and motility viability -3.
`O=C1CN(c2ccc(Br)cc2)C(=O)N1CC(=O)N1CCCc2ccccc21` gave motility -5% and motility viability -2.
`Clc1ccccc1CSc1nnc2c3ccccc3nc(-c3ccccc3)n12` gave motility -3% and motility viability -5.

High-throughput results (PubChem)

This is a subset; rates above refer to the full screens.
